TRPML1 ag – qHTS for Agonists of the Human Mucolipin Transient Receptor Potential 1 (TRPML1); Mucolipin-1 (Homo sapiens), Q9GZU1; TRPML1-expressing cells, Ca2+ dye fluorescence, FDSS; host cell line not named in the record; reference of the full effect not given here; activation, % (no concentration beside the values); actives 0.12% (n = 410,000); AID 624414, 2012; in the data active = activation above about 50%; inconclusive = about 30% to 50%; inactive = below about 30%; further: 0% is about no effect; the text of the record puts the active cut at 80%
Target sequence (Q9GZU1 whole entry, looked up): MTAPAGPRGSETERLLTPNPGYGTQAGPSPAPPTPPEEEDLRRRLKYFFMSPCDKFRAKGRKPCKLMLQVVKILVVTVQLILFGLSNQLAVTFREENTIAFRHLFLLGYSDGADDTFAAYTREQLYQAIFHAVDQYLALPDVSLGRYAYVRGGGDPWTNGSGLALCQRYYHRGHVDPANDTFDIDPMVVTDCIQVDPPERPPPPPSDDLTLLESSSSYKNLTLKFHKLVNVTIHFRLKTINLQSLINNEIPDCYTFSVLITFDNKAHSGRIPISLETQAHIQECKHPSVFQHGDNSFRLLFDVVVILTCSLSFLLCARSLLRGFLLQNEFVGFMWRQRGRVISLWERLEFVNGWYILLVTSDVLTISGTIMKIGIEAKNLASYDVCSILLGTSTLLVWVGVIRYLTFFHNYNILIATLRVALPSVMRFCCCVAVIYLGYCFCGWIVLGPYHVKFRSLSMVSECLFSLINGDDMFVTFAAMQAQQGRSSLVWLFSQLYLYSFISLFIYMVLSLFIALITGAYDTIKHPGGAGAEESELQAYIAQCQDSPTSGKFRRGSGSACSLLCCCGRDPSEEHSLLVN
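TRPML1-DL cells, Tet-induced overnight (~16 h, 37 degrees C), loaded 45-90 min at room temperature with Ca8 no-wash calcium dye plus quencher. FDSS fluorescence: 10 s baseline, compound pin-transfer, 110 s agonist read, then EC80 54-4 (4uM final) and 110 s antagonist read.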
Menin MLL FP FL – qHTS Assay for Inhibitors Targeting the Menin-MLL Interaction in MLL Related Leukemias: Competition With Fluorescein Labeled MLL-derived Peptide; 290,000 tested, under 10 active; Fluorescence polarization, fluorescein-MLL peptide displacement from menin; AID 1766, 2009; FP activity change, % at 61.4 µM; inconclusive = falling polarisation curve, or a change in total fluorescence; inactive = total fluorescence flat and polarisation flat or rising; no compound was filed as active; the % refers to the polarisation; negative = inhibition;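 further: % of control where 0% means no effect; inhibitors lower the polarisation; unlabelled MLL peptide was the positive control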
gsp ag – qHTS for Agonist of gsp, the Etiologic Mutation Responsible for Fibrous Dysplasia/McCune-Albright Syndrome: qHTS; Potency, µM (doses to about 76.9 µM), for inactives: at the highest dose activation (cAMP increase), actives largely listed as activators; gsp mutant cells, cAMP HTRF, 30 min; control for the full effect not named in the record; actives 0.13% (n = 340,000); active = well fitted activation curve with a large enough effect; inconclusive = small, poorly fitted or top-dose-only effect, or another doubt; inactive = no such curve, though single readings can be large or run the other way; cell line not stated here;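 further: phosphodiesterase inhibitor Ro 20-1724 added with compounds to block cAMP breakdown; potency means the concentration at half of the fitted maximal effect; nearly all actives have a fitted effect of over 60% in size; about a fifth of the inactives were tested at one dose only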
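Cells stably selected in G418 were plated at 2000/well, grown 16-24 hr, then given compounds in DMSO with the PDE inhibitor […] (300 uM solution added) for 30 min at 37C; cAMP was read by HTRF.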
ClpP mod – qHTS Assay for Activators of ClpP. ATP-dependent Clp protease proteolytic subunit (Bacillus subtilis (strain 168)), P80244. purified B. subtilis ClpP, FRET peptide cleavage, 20 min. Potency, µM (doses to about 57.5 µM), for the others: top-dose activity change, negative = active. actives 1.9% (n = 340,000); active = well fitted falling curve with a large enough effect; inconclusive = small, poorly fitted or top-dose-only effect; inactive = no such curve, though single readings can be large or run the other way; further: potency means the concentration at half of the fitted maximal effect; the source files actives as falling curves though it sought activators and does not explain the sign; nearly all actives have a fitted effect of over 65% in size; many hits overshoot -100%
Target sequence (P80244 whole entry, looked up): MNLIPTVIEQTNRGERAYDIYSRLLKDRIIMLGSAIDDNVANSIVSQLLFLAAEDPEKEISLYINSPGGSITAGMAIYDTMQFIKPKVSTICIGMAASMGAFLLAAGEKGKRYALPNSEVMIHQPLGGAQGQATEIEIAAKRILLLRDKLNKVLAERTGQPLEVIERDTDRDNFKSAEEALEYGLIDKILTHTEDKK
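Buffer: 100 mM Tris/HCl pH8, 100 mM KCl, 0.05% low protease BSA, 2.5% glycerol, 0.01% Tween-20. ClpP 10 microg/mL final; 20 min RT; delta FRET normalized to ADEP and DMSO controls.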
TRPML1 inh – qHTS for Inhibitors of the Human Mucolipin Transient Receptor Potential 1 (TRPML1); Mucolipin-1 (Homo sapiens), Q9GZU1; TRPML1-inducible cells, Ca2+ dye fluorescence, FDSS; active compounds read low; inhibition of EC80 agonist-evoked calcium signal; activity change, negative = inhibition, % (test concentration not listed); actives 0.02% (n = 390,000); AID 624415, 2012; in the data active means activity change below about -50%; inconclusive means about -30% to -50%; inactive means above about -30%;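 further: stimulus is agonist 54-4 at its EC80 concentration; on the % scale 0 is the no-effect control and ±100 the full control effect; compound concentration not given in the record; the text of the record puts the active cut at -80%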
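Calcium fluorescence in TRPML1-DL cells induced overnight with Tet: a 110 s read after compound pin addition, then a 110 s antagonist read after challenge with 54-4 at 4 uM final (EC80).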
gsp antag – qHTS for Antagonists of gsp, the Etiologic Mutation Responsible for Fibrous Dysplasia/McCune-Albright Syndrome: qHTS; gsp-mutant cells, cAMP HTRF, 30 min; control for the full effect not named in the record; Potency, µM (doses to about 76.9 µM), without a hit: at the top dose activity change, negative = inhibition, most hits filed as inhibitors; actives 0.4% (n = 340,000); AID 624288, 2012; active = falling curve of any shape with a large fitted effect; inconclusive = falling curve, mostly with a smaller effect; inactive = flat or rising curve; cell line not stated here;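 further: intracellular cAMP measured with PDE inhibitor Ro 20-1724 present during compound exposure; potency means the concentration at half of the fitted maximal effect; on the % scale 0 is the no-effect control and ±100 the full control effect; nearly all actives have a fitted effect of over 65% in size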
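Cells in G418 medium, seeded 16-24 h, 37C; buffer exchange to DPBS + 1 mM CaCl2, 0.5 mM MgCl2, 0.05% BSA; cpds in DMSO + […] (300 uM stock), 30 min 37C; HTRF cAMP detection.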
Active calls of the source: *; ? = inconclusive; nt = not tested or not shown; [ ] = another dose, or the depositor's remark. Rows were taken by chance (roughly 2.1% active in at least one column).

nr	molecule	Menin MLL FP FL	gsp antag	gsp ag	TRPML1 inh	TRPML1 ag	ClpP mod
1	O=C(NC1CCN(C(=O)N2CCOCC2)CC1)c1ccccc1	2.2	3%	-21%	-4	-0.7	-0.1%
2	CCOc1ccc(NC(=O)CSc2nnc(-c3ccncc3)n2CC2CCCO2)cc1 (configuration not stated)	1.3	14%	-22%	-12	-0.6	-1.2%
3	Cc1ccc(OCC(=O)Nc2ccc(N3CCOCC3)cc2)c([N+](=O)[O-])n1	2.1	8%	3%[15.4 µM]	8	-1.3	nt
4	O=C(Cc1ccc(Br)cc1)NC1CCCCC1	2.6	7%	-10%	-7	-0.3	-1.4%
5	COc1ccccc1C(=O)Nc1ccc(C(=O)O)cc1	0.9	-11%	-53%[inhibitor]	-5	-0.2	-3.9%
6	CCCCC(=O)NC1(C(F)(F)F)NC(=O)N(Cc2ccccc2)C1=O (configuration not stated)	0.4	4%	0%[15.4 µM]	-22	-0.5	4.0%
7	O=C(Nc1cc(F)ccc1F)c1ccc2c(c1)nnn2C1CCCC1	nt	nt	nt	1	1.1	-8.3%
8	O=C(CN1CCCCC1)N1N=C(c2cccs2)CC1c1cccs1 (configuration not stated)	0.1	9%	?	36	0.1	-8.9%
9	COC(=O)CNC(=O)Cn1ccc2ccccc2c1=O	-6.2	-17%	19%	22	-0.6	?
10	Fc1ccc(-c2noc3ncnc(NC4CCCCC4)c23)cc1	nt	nt	nt	1	0.6	0.8%
11	CCC(CC)C(=O)NCCCCc1ccccc1	3.5	6%	0%	13	0.2	-4.8%
12	CCNc1nc(NCC)nc(SCCOC(=O)Nc2ccc(Cl)cc2Cl)n1	2.2	-5%	-45%[inhibitor]	-11	2.5	-1.3%
13	Cc1csc(NS(=O)(=O)c2cccc([N+](=O)[O-])c2)n1	-4.2	-9%	-58%[15.4 µM]	-7	-0.1	nt
14	COC(=O)[C@@H]1C(c2ccccc2)(c2ccccc2)[C@@]1(C)C(=O)OC	3.0	0%	1%	9	1.8	-1.3%
15	N#C[C@]1(S(=O)(=O)c2ccccc2)C[C@@H]2ON=C(c3cccc(Br)c3)[C@@H]2C1	7.0	-28%	?	5	-0.5	-1.0%
16	C#CCNC(=O)C1=C[C@@H](C2CC2)[C@H](CCCO)[C@@H](OCC)O1	2.7	6%	nt	-4	-0.3	0.3%
17	CC(C)(C)NC(=O)C(c1ccc(O)cc1)N(C(=O)CCC(=O)Nc1nccs1)c1ccccc1F (configuration not stated)	2.0	-4%	-2%[15.4 µM]	0	-0.2	nt
18	CCn1cc(C(=O)NCCN(C)CCc2ccccc2)c(=O)c2cc(S(=O)(=O)N(C)C)ccc21	1.2	6%	7%	4	-0.7	-4.5%
19	O=C(CN1C(=O)COc2ccccc21)NCc1ccccn1	-0.2	5%	30%	39	0.2	1.4%
20	O=C(CN1C2=NCCN2c2ccccc21)c1ccc(Br)s1	12	7%	?	24	0.6	-0.5%
21	COC(=O)c1ccc(Cn2cnc3ccccc3c2=O)cc1	-0.5	15%	30%	1	-1.4	-2.6%
22	O=C(O)c1cccc(Nc2nc(Nc3ccccc3)nc(N3CCCC3)n2)c1	1.6	-50%	-2%[15.4 µM]	7	3.7	nt
23	CC(=O)N1CCCc2ccccc21	-1.5	14%	-25%	-9	-0.7	0.2%
24	C/C(CC(=O)Nc1cc(C)ccn1)=N\NC(=O)C(=O)NC(C)C	2.1	3%	12%[15.4 µM]	5	1.8	nt
25	O=C(O)c1ccccc1Nc1ccnc(C(F)(F)F)c1	-1.9	-15%	-3%	-11	0.5	-2.2%
26	Cc1nc(Cl)c2c(n1)NC1=C(O2)C(=O)CCC1	?	-24%	-8%[15.4 µM]	8	22	nt
27	COCCCNC(=O)Nc1cc(C(=O)NCc2ccc(OC)cc2)ccc1N1CCCC1	nt	nt	nt	1	1.3	4.1%
28	COC(=O)c1sc2ncccc2c1OCc1ccc(Cl)cc1Cl	-1.5	4%	18%	73	6.1	?
29	C=Cn1cc(CNC[C@H]2O[C@@H](n3cnc4c(=O)[nH]c(N)nc43)[C@H](O)[C@@H]2O)c(C)n1	nt	nt	nt	2	-0.5	0.9%
30	CCc1nc(N[C@H](C(=O)O)C(C)C)c2oc3ccccc3c2n1	-1.5	-15%	-4%[15.4 µM]	-18	2.7	nt
31	CCOc1ccccc1-c1noc(CSc2nnc(-c3ccccc3)n2-c2ccc(F)cc2)n1	nt	nt	nt	-13	2.8	1.5%
32	Cc1ccccc1Nc1nn2c(=O)c3ccc(C(=O)NCCc4ccc(Cl)cc4)cc3nc2s1	nt	nt	nt	4	2.7	37%
33	COc1ccccc1-n1c(-c2ccccc2)c[nH]c1=S	2.5	-10%	8%	6	-0.2	-3.1%
34	COc1cccc(Nc2ccc([N+](=O)[O-])c3nonc23)c1	?	-23%	-71%[inhibitor]	-1	0.6	nt
35	Cc1cc(N(CCO)Cc2ccccc2)n2nc(-c3ccc(C(C)(C)C)cc3)nc2n1	nt	nt	nt	9	-0.7	1.7%
36	O=C(CSc1nnc(Cc2ccccc2)n1-c1cccc(Cl)c1)NNC(=O)Cc1ccccc1	2.7	4%	8%	5	1.2	-0.1%
37	Cc1ccc(S(=O)(=O)n2nc(C)c(C#N)c2N)cc1	nt	-7%	-42%[inhibitor]	-11	0.7	0.6%
38	Cc1cc(CCCCCCCCc2cc(C)cc(=O)o2)oc(=O)c1	-1.1	-11%	-5%	-15	1.4	3.5%
39	COc1ccc(NC(=S)N2CCC(NC(=O)c3cccc(F)c3)CC2)cc1	1.3	1%	6%[15.4 µM]	21	0.6	nt
40	CCOC(=O)c1cnc(-n2nc(C)cc2C)nc1NNc1cc(C)nc(-c2ccccc2)n1	-1.3	5%	2%	5	1.4	-2.0%
41	COc1ccccc1NC(=O)c1cc[n+](C)cc1	1.9	5%	15%	-13	0.3	-1.2%
42	Cc1ccc(-n2c(SCC(=O)Nc3cc(S(=O)(=O)N4CCOCC4)ccc3Cl)nc3ccccc3c2=O)cc1	1.6	-8%	3%	-6	1.8	-2.8%
43	Nc1nnnn1/N=C/c1cccc(Oc2ccccc2)c1	3.4	2%	-49%[inhibitor]	-19	1.6	1.6%
44	Nc1ccccc1C(=O)Nc1ccc(Cl)cc1Cl	2.9	-10%	14%	-15	1.5	nt
45	Cc1ccc(C(=O)NC23CC4CC(CC(C4)C2)C3)c(Cl)c1	-3.5	?	-19%	3	-0.7	1.1%
46	COc1ccc(CCN2C(=O)c3[nH]nc(-c4ccccc4O)c3C2c2cccc(O)c2)cc1OC (configuration not stated)	0.7	-6%	-10%	18	3.6	1.2%
47	Fc1ccc(N2CCN(c3ncnc4c3nnn4Cc3ccccc3Cl)CC2)cc1	nt	-8%	30%	0	-0.1	?
48	COc1ccccc1-c1noc(-c2ccccc2C(=O)NCC2CCCO2)n1 (configuration not stated)	-0.2	7%	-2%	11	0.3	3.2%
49	CCOc1cccc(-c2c(C(=O)N/N=C/c3ccc(C)s3)nnn2-c2nonc2N)c1	nt	?	11%	1	-0.9	-1.2%
50	Cc1ccc(S(=O)(=O)Cn2nnnc2CN(Cc2ccco2)CC2CCCO2)cc1 (configuration not stated)	2.3	-7%	-2%	4	4.0	0.6%
51	O=C(Nc1ccc(-n2nncc2-c2ccco2)cc1)c1cc2ccccc2oc1=O	11	-6%	-2%	44	-0.7	0.1%
52	O=c1c(Cl)cc(Cl)nn1-c1ccccc1	12	-10%	27%	-8	0.3	-1.2%
53	Cc1ccc(CNC(=O)CCn2cc(-c3ccc(F)cc3)nc2-c2ccncc2)cc1	nt	-12%	nt	-7	-0.2	-27%
54	C/C(=N\NC(=O)CC(C)C)c1c(C(F)(F)F)[nH]n(-c2nc3ccccc3s2)c1=O	0.6	-6%	-1%	nt	nt	0.1%
55	CCCN(C(=O)c1cc2c(=O)oc3ccc(C)cc3c2s1)c1ccc(OCC)cc1	nt	nt	nt	-12	-0.9	0.8%
56	CCOC(=O)c1c(CN2CCN(CCO)CC2)n(C)c2cc(Br)c(OC)cc12	2.3	12%	42%	-8	0.4	-2.7%
57	COc1ccc(C(=O)c2cc(OC)c(OC)c(OC)c2)cc1OC	nt	12%	-1%[15.4 µM]	4	-0.2	0.8%
58	CC1=C(c2ccc(C)c(C)c2)S(=O)(=O)N=C1N1CCC(C(=O)NCc2ccc(N(C)C)cc2)CC1	nt	nt	nt	18	2.2	1.7%
59	COc1ccc2c(c1OC)c(=O)n1c3ccc(OC(C)C(=O)NCCN4CCOCC4)cc3c3ccnc2c31 (configuration not stated)	6.0	-10%	nt	nt	nt	4.3%
60	O=C(NNC(=O)c1cccc(S(=O)(=O)N2CCc3ccccc32)c1)c1ccccc1	-1.4	-7%	-3%[15.4 µM]	4	3.8	nt

New compounds follow:
nr	molecule	Menin MLL FP FL	gsp antag	gsp ag	TRPML1 inh	TRPML1 ag	ClpP mod
61	Cc1ccc(C)c(S(=O)(=O)N2CCCOC2CNC(=O)C(=O)NCCN2CCOCC2)c1 (configuration not stated)	nt	9%	?	-4	0.1	-1.9%
62	O=S(=O)(c1ccccc1)N1CCCN(S(=O)(=O)c2ccccc2)CC1	-18	-8%	-9%	1	1.3	1.7%
63	CCCOc1ccc(N2C(=O)CC(N(Cc3ccco3)C(=O)CCC(=O)O)C2=O)cc1 (configuration not stated)	4.4	5%	4%[15.4 µM]	18	1.0	nt
64	CCOC(=O)Cc1cc(=O)n2[nH]c(-c3ccccc3)cc2n1	3.4	-6%	-1%	-9	0.1	28µM*
65	Cc1cc2c(cc1S(=O)(=O)CCC(=O)N1CCN(c3ccccc3)CC1)OCC(=O)N2	nt	nt	nt	-22	2.0	-3.4%
66	COc1ccccc1NC(=O)CN1CCN(c2ccc(Cl)cc2)CC1	-0.9	-1%	5%	-8	2.9	0.6%
67	COc1cc(CN(C)CC2CCCN(CCc3ccccc3F)C2)cc(Cl)c1OC (configuration not stated)	0.5	-6%	-8%	14	-0.7	nt
68	Cc1ccc(S(=O)(=O)c2nc(-c3ccccc3Br)oc2N(C)C)cc1	nt	-9%	?	51	0.8	1.9%
69	Cc1ccc(OCCNC(=O)c2cc(-n3cnnc3)ccc2Cl)cc1C	3.4	-4%	-36%[inhibitor]	0	-0.2	0.2%
